# MARV entry inh: qHTS for inhibitors of binding or entry into cells for Marburg Virus | Potency, µM (highest dose often 37.8 µM), for the others: at the highest dose activity change, negative = inhibition, usual class: inhibitors | Marburg virus pseudotyped entry inhibition, cell reporter; control for the full effect not named in the record; about a third of the inactives were read at about 46 µM | 300,000 compounds, 1.8% hits; active = well fitted inhibition curve with a large enough effect; inconclusive = small, poorly fitted or top-dose-only effect, or effect the other way; inactive = flat fitted curve, though single readings scatter; tested in HEK293 cells; about a fifth of its hits are not listed in these tables; note: % is set by controls: 0 for no effect and ±100 for the full control effect; luciferase read-out
# RE007 growth inh: qHTS Assay for Inhibitors of the HIV-1 protein Vpr. S. pombe RE007 Vpr strain, BacTiter-Glo ATP luminescence, 24 h; control for the full effect not named in the record. Potency, µM (titrated, usually from 92.2 µM), for the others: top-dose activity change, negative = less growth. 360,000 compounds, 0.21% hits; active = well fitted falling curve with a large enough effect; inconclusive = small, poorly fitted or top-dose-only effect; inactive = no such curve, though single readings can be large or run the other way;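 note: % is set by controls: 0 for no effect and ±100 for the full control effect; nearly all actives have a fitted effect of over 50% in size; the assay follows cell death caused by Vpr and the record does not say whether a fall means rescue or toxicity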
#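 Fission yeast RE007 carrying one integrated HIV-1 vpr copy, seeded at OD 0.01 in PMG+AL medium with 23 nL pinned compound. Grown 24 h at 30 degrees; viability read by BacTiter-Glo luminescence after 5 min.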
# Lassa entry inh: qHTS for Inhibitors of binding or entry into cells for Lassa Virus; 300,000 compounds, 1.2% hits; Lassa virus pseudotype entry inhibition, cell reporter; control for the full effect not named in the record; AID 540256, 2011; Potency, µM (titrated, usually from 37.9 µM), without a hit: at the top dose activity change, negative = inhibition, hits mostly inhibitors; active means well fitted inhibition curve with a large enough effect; inconclusive means small, poorly fitted or top-dose-only effect, or effect the other way; inactive means flat fitted curve, though single readings scatter; tested in HEK293 cells; note: % is set by controls: 0 for no effect and ±100 for the full control effect; nearly all actives have a fitted effect of over 50% in size; luciferase read-out
# Cruzain Triton: qHTS Assay for Promiscuous and Specific Inhibitors of Cruzain (with detergent); Cruzipain (Trypanosoma cruzi), P25779; purified cruzain, Z-FR-AMC fluorescence, 0.01% Triton; Potency, µM, without a hit: max response, negative = inhibition, usual class: inhibitors; 200,000 compounds, 0.43% hits;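 note: plate controls were neutral wells for no effect and buffer without enzyme for full effect; nearly all actives have a fitted effect of over 40% in size; top concentration of the series not given in the record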
# Target sequence (P25779 123-467 limits assumed): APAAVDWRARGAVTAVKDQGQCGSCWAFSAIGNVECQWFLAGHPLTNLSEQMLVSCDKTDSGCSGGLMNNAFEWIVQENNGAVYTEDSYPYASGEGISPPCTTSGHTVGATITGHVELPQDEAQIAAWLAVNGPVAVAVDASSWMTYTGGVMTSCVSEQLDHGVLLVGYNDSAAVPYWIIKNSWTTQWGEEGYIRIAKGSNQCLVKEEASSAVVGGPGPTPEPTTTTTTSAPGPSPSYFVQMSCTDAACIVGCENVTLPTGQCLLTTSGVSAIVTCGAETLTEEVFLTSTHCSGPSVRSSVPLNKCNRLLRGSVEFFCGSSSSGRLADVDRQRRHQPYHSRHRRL
#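 Z-FR-AMC hydrolysis (2 uM substrate) by cruzain (1.5 nM) monitored kinetically at ex 360/em 450 nm after 15 min room-temperature compound exposure; 0.01% Triton X-100, pH 5.5, 5 mM DTT.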
# NS1 inh: qHTS Assay for Inhibitors of Influenza NS1 Protein Function; S. cerevisiae slowed by influenza A NS1, growth recovery by OD600; Potency, µM (titrated, usually from 46.1 µM), inactives show top-dose activity, positive = more growth; 270,000 compounds, 0.4% hits; active means well fitted rising curve with a large enough effect; inconclusive means small, poorly fitted or top-dose-only effect; inactive means no such curve, though single readings can be large or run the other way; note: nearly all actives have a fitted effect of over 50% in size
#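 In this qHTS, NS1 from influenza A is expressed in budding yeast, where it slows growth. Cells are switched from glucose to 2% galactose medium (pH 6.0, -URA), treated with compound, and growth recovery is read at OD600.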
# Cruzain inh noDet: qHTS Assay for Promiscuous and Specific Inhibitors of Cruzain (without detergent); Potency, µM, for the others: max response, negative = inhibition, actives largely listed as inhibitors; Cruzipain (Trypanosoma cruzi), P25779; 200,000 compounds, 2.3% hits; purified cruzain, Z-FR-AMC fluorescence, no detergent;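 note: plate controls were enzyme without inhibitor for no effect and buffer without enzyme for full effect; nearly all actives have a fitted effect of over 40% in size; top concentration of the series not given in the record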
#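 Detergent-free condition (0.00005% Triton X-100) in acetate buffer pH 5.5 with DTT. 1.5 nM enzyme and compound were pre-mixed 15 min, then 2 uM Z-FR-AMC substrate added; reaction progress from fluorescence change between first and third reads (60 s).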
# StopGo reporter: High Throughput Screening for Foot and Mouth Disease Virus Antivirals; AID 1159524, 2015; 410,000 compounds, 1.2% hits; human cells with a luciferase reporter of 2A StopGo recoding; control for the full effect not named in the record; Potency, µM (doses to about 57.9 µM), without a hit: at the highest dose signal change, negative = less light; active = well fitted falling curve with a large enough effect; inconclusive = small, poorly fitted or top-dose-only effect; inactive = no such curve, though single readings can be large or run the other way; tested in HEK293T cells; note: % is set by controls: 0 for no effect and ±100 for the full control effect; nearly all actives have a fitted effect of over 45% in size; luciferase light after 4 h
# SARS PLpro yeast: qHTS of Yeast-based Assay for SARS-CoV PLP | S. cerevisiae expressing SARS-CoV PLpro, growth rescue; control for the full effect not named in the record | 330,000 compounds, 0.19% hits | Potency, µM (doses to about 32.9 µM), inactives show at the top dose activity, positive = growth rescue | AID 485353, 2010; active means well fitted rising curve with a large enough effect; inconclusive means small, poorly fitted or top-dose-only effect; inactive means no such curve, though single readings can be large or run the other way; note: 0% is about no effect; nearly all actives have a fitted effect of over 55% in size; growth read by luminescence after 48 h
# An asterisk follows results filed as active; u = inconclusive; x = no result given; & = joins results of further samples; [ ] = remark or other dose. Unless noted, calls come from the whole dose curve; as a rule, active = well fitted curve in the direction sought with a large enough effect; inconclusive = small, poorly fitted or top-dose-only effect, or another doubt; inactive = no such curve, though single readings can be large; an effect the other way counts as inactive or inconclusive. Potency is the fitted concentration of half-maximal effect. Random draw from the library. Share with any hit: about 4.5%.
SMILES,MARV entry inh,RE007 growth inh,Lassa entry inh,Cruzain Triton,NS1 inh,Cruzain inh noDet,StopGo reporter,SARS PLpro yeast
Cc1cccc(Nc2nc(NCc3ccco3)nc(N3CCOCC3)n2)c1,2.31µM*,16.6%,u,-2.0%,-112.6%,2.9%,-21.8%,-13.8%
COc1ccc(Oc2coc3c(CN4CCOCC4)c(O)ccc3c2=O)cc1,8.7%,0.2%,u,1.0%,-0.5%,1.3%,-1.3%,5.3%
O=C(CSc1nc(-c2cccs2)nc2cc(=O)[nH]n12)Nc1ccccc1F,x,x,0.4%[46.1 µM],-2.9%,x,6.5%,0.0%,-6.0%
CCOC(=O)C1=C(C)NC(C)=C(C(=O)OCC)C1C(=O)OCC(=O)NC(C)C,u,17.9%&-3.2%,u,2.8%,-13.0%,24.8%,-12.8%&-19.6%,0.2%
CC(Oc1ccc(Cl)cc1Cl)c1ccnc2nc(N3CCOCC3)nn12 (stereo not drawn),u,10.0%,-6.0%[46.1 µM],x,-14.5%,x,u,-2.3%
C1=NN(c2ccccc2)C=NN1c1ccccc1,u,41.6%,-1.7%,x,x,x,25.3%,x
CN1CCC(C(=O)C(=O)O)C1=O (stereo not drawn),-11.7%,0.8%,-8.3%[46.1 µM],x,x,x,-13.2%,x
Cc1ccc(OCCNc2cc(N3CCN(CCO)CC3)ccc2[N+](=O)[O-])cc1C,u,0.2%,u,-17.0%,-0.4%,-13.4%,-22.9%,6.2%
Cc1ccc(S(=O)(=O)CC(=O)N2CCN(c3ccc(F)cc3)CC2)cc1,0.3%[46.1 µM],-11.9%,u,x,19.9%,x,-9.4%,0.6%
O=CNc1ccc2c(c1)Cc1cccc(NC=O)c1-2,-15.6%,-12.1%,u,x,x,x,8.8%,x
CCOC(=O)c1sc2ncnc(OC)c2c1C,u,-23.7%,-7.8%,0.4%,0.7%,0.6%,-0.9%,-4.9%
COc1ccccc1N1CCN(C(=O)c2cc(-c3cccc(Cl)c3)on2)CC1,-18.9%,16.7%,-19.8%,-0.3%,-33.9%,u,-18.1%,-3.0%
COc1ccc(N(CC(=O)NCCSc2ccc(C)cc2)S(=O)(=O)c2ccccc2)c(OC)c1,u,-2.6%,u,x,9.0%,x,-8.2%,1.5%
Cc1ccc2c(c1)N(CC(=O)N1CCC(C)CC1)C(=O)c1cccnc1O2,-4.0%[46.1 µM],-11.7%,-28.9%[46.1 µM],x,-4.1%,x,-9.8%,-3.5%
COc1cc2c(cc1NC(=O)c1cc(-c3ccccn3)nc3ccccc13)oc1ccccc12,u,-8.0%,-0.9%[46.1 µM],-0.5%,u,-9.5%,7.8%,5.8%
OCc1cc(-c2ccc(Cl)c(Cl)c2)on1,4.0%[46.1 µM],8.5%,x,x,-30.1%,x,-1.8%,0.0%
Cc1ccccc1OCCNc1ccc(C(F)(F)F)cc1[N+](=O)[O-],-24.0%,-17.8%,-0.7%,-3.3%,-10.7%,-3.7%,3.9%,-11.1%
C[C@H](NC(=O)c1[nH]cnc1C(=O)Nc1ccc(CNC(=O)OC(C)(C)C)cc1)C(=O)OC(C)(C)C,x,0.8%,x,x,-7.6%,x,u,0.1%
CCc1nnc(NC(=O)CSc2nncc(=O)n2N)s1,x,4.8%,x,x,4.1%,x,15.3%,-0.8%
Cc1ccc(S(=O)(=O)N(C)CC(=O)NNC(=O)Cc2cccc(F)c2)cc1,u,-1.1%,-0.6%,x,x,x,-6.2%,-2.6%
CC1CCCCN1CCNC(=O)CCc1nnc2n(Cc3ccccc3)c(=O)c3ccccc3n12 (stereo not drawn),x,-11.1%,x,x,4.7%,x,-18.8%,3.7%
Cn1nnnc1SCC(=O)Nc1cc(S(=O)(=O)N2CCCCC2)ccc1Cl,-4.7%[46.1 µM],14.6%,-9.8%[46.1 µM],x,x,x,-4.3%,4.8%
COc1ccc(CCNC(=O)CCc2ccc(OC)cc2)cc1,x,-13.4%,x,x,3.1%,x,2.5%,-1.6%
CCOC(=O)c1c(NC(=O)OC)sc(C(=O)N(CC)CC)c1C,0.2%,-10.1%,10.6%,0.3%,-18.4%,11.7%,-14.2%,-2.8%
COc1ccc(C(=O)CSc2n[nH]c(=O)n2Cc2ccco2)cc1,7.6%[46.1 µM],8.2%,-8.4%[46.1 µM],x,-4.2%,x,19.0%,-0.7%
CC(C)=CCN1CCN(Cc2nc(-c3ccccc3)cs2)CC1CCO (stereo not drawn),x,13.6%,x,x,5.5%,x,-13.7%,0.4%
Cn1c2ccccc2c2c(C(=O)N3CCN(c4ccccn4)CC3)cn(C3CCCC3)c(=O)c21,-24.3%,4.1%,u,-11.2%,-68.1%,3.7%,-9.2%,-2.7%
COc1cc(/C=N/NC(=O)Cc2nnc(N)s2)cc(OC)c1OC,x,7.2%,x,x,-2.0%,x,-3.1%,-2.7%
CCOC(=O)c1ccc(NC(=O)C(C)NS(=O)(=O)c2ccc(OC)cc2)cc1 (stereo not drawn),-2.3%,-8.3%,-14.0%,-1.9%,-12.1%,3.9%,16.7%,0.6%
Cc1cc([N+](=O)[O-])ccc1NC(=S)NC(=O)C(c1ccccc1)c1ccccc1,u,-11.5%,1.1%,-0.4%,-47.1%,u,u,3.7%
C/C(=N\O)C(C)(C)Nc1ccc(Cl)cc1,-3.8%[46.1 µM],14.2%,18.2%[46.1 µM],x,-0.3%,x,-11.2%,-5.1%
S=C1NNC2(NN1)C1CC3CC(C1)CC2C3,-0.5%,4.5%,0.4%,-0.9%,-6.0%,8.2%,4.0%,7.0%
CC(=O)NCCOc1cccc2cccnc12,-19.2%&-19.2%,-1.1%,5.2%,4.5%,12.1%,6.8%,x,-11.4%
CCCCOC(=O)c1ccc(-n2nnc3c(sc4nc(C)cc(C)c43)c2=O)cc1,6.7%[46.1 µM],x,5.1%[46.1 µM],2.7%,x,10.7%,20.2%,x
C/C(=N\Nc1ccc(Cl)c(C(=O)O)c1)c1cccs1,u,5.0%,19.3%[46.1 µM],x,-0.1%,x,1.5%,0.3%
CCc1ccc(Nc2cc(C)nc3nc(Cc4ccc(Cl)cc4)nn23)cc1,u,x,u,-6.1%,x,-16.8%,u,x
CCC(=O)N1CCc2cc(Br)cc(S(=O)(=O)N3CCN(c4ccc(C)cc4)C(C)C3)c21 (stereo not drawn),-7.5%[46.1 µM],x,27.8%[46.1 µM],2.1%,x,4.5%,-1.9%,x
COc1ccc(OCC(=O)Sc2ccc(C)cc2)cc1,3.1%,-26.7%,3.4%,-6.4%,-50.6%,4.8%,u,2.82µM*
S=C(NC1CCCCC1)N(CCc1ccccc1)CCc1ccccc1,-0.9%,26.5%,x,-3.7%,-13.9%,1.8%,18.0%,9.4%
COc1ccc(C2CC(=O)N3CN(C4CCCCC4)CSC3=C2C#N)cc1 (stereo not drawn),25.2%[46.1 µM],x,4.7%[46.1 µM],20µM*,x,12.0%,-13.7%,x
Clc1ccc(-c2cc(COc3ccccc3)no2)cc1Cl,11.4%,u,6.2%,-3.0%,9.2%,-6.5%,-2.7%,-4.2%
CCOCCc1nn2c(=O)cc(COC(=O)c3ccccc3Br)nc2s1,x,x,22.6%[46.1 µM],-4.3%,x,14.2%,11.6%,x
COc1cccc(-c2nc(CS(=O)(=O)CC(=O)NCc3ccc(Cl)cc3)c(C)o2)c1,-23.4%&-23.4%,-1.0%,-1.6%,0.5%,2.9%,-11.2%,0.0%,-6.4%
Cc1ccc(C2=NNC(=Nc3ccc(F)cc3)SC2)cc1,u,1.6%,u,x,x,x,40.7%[activator],-1.9%
COc1ccc(-c2cc3ccccc3n2CC(O)CN2CCN(CCO)CC2)cc1 (stereo not drawn),x,-10.9%,x,-3.4%,-2.3%,0.9%,-11.7%,-7.5%
Cc1cc(=O)c2ccccc2n1CC(=O)NCc1ccccc1,10.3µM*,6.2%,u,-1.0%,-9.3%,-12.0%,u,-0.3%
CCc1nn2cc(C(=O)c3ccccc3O)cnc2c1-c1ccc(F)cc1,-31.4%,u,-13.2%,-3.4%,10.2%,11.9%,0.0%,-29.6%
Cc1nc(CNS(=O)(=O)c2ccc(Br)cc2)cs1,-0.3%[46.1 µM],5.5%,-0.5%[46.1 µM],x,6.4%,x,3.9%,1.0%
CC(=O)c1ccc(NC(=O)c2sc3nc(C)c(C)c(C)c3c2N)cc1,u,13.9%,u,x,17.3%,x,76.7%[activator],-2.1%
CN(C)c1ccc(/C=N/NC(=O)c2ccc3c(c2)OCCO3)cc1,x,13.7%,x,x,-64.6%,x,38.7%[activator],-9.0%
N#CCCn1ccc(NC(=O)c2ccc(Cl)cc2)n1,15.9%,3.8%,11.6%,3.9%,-3.1%,1.4%,-5.7%,2.7%
Cc1cc(C)n(CC(O)CN(c2ccccc2)S(=O)(=O)c2ccccc2)n1 (stereo not drawn),-14.0%[46.1 µM],14.2%,5.8%,10.9%,14.0%,1.5%,u,2.5%
Cc1sc2nc(SCC(=O)N3CCCC3)[nH]c(=O)c2c1C,x,-3.0%,x,-4.6%,-9.4%,-9.1%,-11.9%,-2.1%
CCCn1c(NC(=O)c2ccc([N+](=O)[O-])o2)nc2ccccc21,u,-10.5%,-28.7%,x,x,x,-9.1%,-0.6%
CCOc1ccc(CNC(=O)c2ccc3nc(CC)c(CC)nc3c2)cc1OC,x,x,-25.3%[46.1 µM],1.3%,x,-6.8%,-24.4%,x
C=C(c1ccccc1)P(=O)(O)O,u,10.9%,0.0%,1.8%,-3.2%,-6.2%,-20.2%,-17.5%
CCC(OC(=O)C1=Cc2ccccc2OC1)C(=O)NCc1ccco1 (stereo not drawn),x,1.3%,x,x,0.6%,x,-29.2%,-2.0%

# Assay outcomes deposited in PubChem by National Center for Advancing Translational Sciences (NCATS).
